# Ecoli growth = inhibitors of Escherichia coli growth; AID 1053175; OD600 absorbance (no concentration beside the values); 0.21% of 330,000 active; OD600, 23 h; active compounds read low;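 active means OD600 absorbance below the run mean of sample wells minus 3.6 SD, in any replicate, cut at about 0.56 in these data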;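 further: stock transfer was 300 nL into about 60 µL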
# rRNA inh HTS = inhibits bacterial ribosomal RNA function over humanized ribosomes | E. coli WT GFP vs humanized-ribosome RFP mutants, fluorescence, 24 h; active compounds read low; DMSO median 0, no signal -100 | GFP signal change (wild-type ribosome), % (test concentration not listed) | 1.6% of 350,000 active;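 active means significant combined selectivity score with lowered wild-type GFP, culture density cut under 30%, mutant RFP and density less affected; inactive means any of these conditions unmet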; further: one replicate is shown; some compounds called inactive have numbers as strong as hits
# MLL AF4-AF9 inh = MLL-AF4/AF9 protein interaction inhibition. 0.47% of 350,000 active. AlphaScreen, biotin-AF4 peptide binding to FLAG-AF9. inhibition, % at 10 µM;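 active means every replicate reaching a set inhibition limit, whatever the replicate mean, cut at about 25% in these data; inconclusive means mean inhibition reaches that limit but some replicates miss it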;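 further: 0% = plate neutral control median and 100% = total signal loss; the record names both 10 and 1 µM as test concentration; the first replicate is given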
# FGF22 binding = binders of recombinant human FGF22 by thermal shift; calls only at 9.99 µM; SYPRO orange fluorescence; percent of sucrose octasulfate shift, DMSO zero; Q9HCT0; 1.5% of 340,000 active;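 active means melting point raised past a set limit in the mean and every replicate; inconclusive means no clear call; three in four hits are not shown here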
# Target sequence (Q9HCT0 whole entry, looked up): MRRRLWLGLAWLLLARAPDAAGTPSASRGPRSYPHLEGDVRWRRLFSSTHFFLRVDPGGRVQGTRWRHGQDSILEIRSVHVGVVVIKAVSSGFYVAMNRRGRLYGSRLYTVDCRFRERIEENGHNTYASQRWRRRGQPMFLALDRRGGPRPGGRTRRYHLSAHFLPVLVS
# HNF4A DNA FP = change in binding of human HNF4 alpha to DNA | P41235 | HNF4a-FITC DNA binding, fluorescence polarization, 1 h | activity change, % at 10 µM | 0.3% of 360,000 active; in the data active means activity change above about 30%, passing the limit was not always enough;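 further: controls were the assay level and a saturating level of protein; the project sought stronger binding though the title names inhibitors; some compounds called inactive have numbers as strong as hits; positive values seem to mean higher polarization but the record does not say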
# Target sequence (P41235 whole entry, looked up): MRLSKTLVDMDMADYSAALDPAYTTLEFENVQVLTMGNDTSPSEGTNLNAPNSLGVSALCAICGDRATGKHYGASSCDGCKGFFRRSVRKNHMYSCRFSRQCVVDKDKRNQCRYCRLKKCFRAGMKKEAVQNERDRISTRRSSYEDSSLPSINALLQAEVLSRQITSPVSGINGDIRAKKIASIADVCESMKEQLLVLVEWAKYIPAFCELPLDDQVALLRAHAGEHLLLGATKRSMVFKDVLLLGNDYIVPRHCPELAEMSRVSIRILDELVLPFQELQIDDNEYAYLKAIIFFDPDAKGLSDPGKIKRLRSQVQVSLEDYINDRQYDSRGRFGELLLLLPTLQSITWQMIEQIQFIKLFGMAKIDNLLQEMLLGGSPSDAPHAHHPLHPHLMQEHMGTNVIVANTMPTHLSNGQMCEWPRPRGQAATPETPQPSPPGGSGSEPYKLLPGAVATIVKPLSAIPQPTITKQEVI
# Vif A3G = HIV-1 Vif–A3G interaction blockers – biochemical, TR-FRET, GST-Vif 1-94, biotin-A3G peptide, dose response retest, primary screen (AID 1117319); TR-FRET GST-Vif / biotin-A3G peptide binding; higher % means a stronger effect; test concentration not given here; strong numbers were not always called active; inhibition, %, or IC50 in µM where a hit was titrated; 0.57% of 260,000 active;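 active means above the screen mean plus three standard deviations and confirmed in dose response; inconclusive means results disagree or hit not tested in dose response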;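 further: Vif residues 1-94 fused to GST binding biotinylated APOBEC3G peptide 110-148; 0% = full assay without inhibitor and 100% = GST in place of GST-Vif; retest series ran down from 100 µM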
# ALR inh = human ALR oxidase inhibition via reduced H2O2; P55789; purified ALR, DTT oxidation, H2O2 HRP-luminol luminescence; inhibition, % (concentration not given with the values); 3.8% of 290,000 active; AID 485317;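 active means mean and each replicate at 75% or more; inconclusive means only one of the two met; inactive means neither met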;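 further: stock transfer was 7.5 nL into about 7.5 µL; 0% = neutral wells and 100% = wells with inactivated enzyme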
# Target sequence (P55789 whole entry, looked up): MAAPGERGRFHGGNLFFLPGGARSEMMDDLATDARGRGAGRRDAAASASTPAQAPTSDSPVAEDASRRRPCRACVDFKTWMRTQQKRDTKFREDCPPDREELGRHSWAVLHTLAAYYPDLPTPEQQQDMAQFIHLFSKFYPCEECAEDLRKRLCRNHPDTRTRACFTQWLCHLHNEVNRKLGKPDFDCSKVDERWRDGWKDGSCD
# rRNA inh HTS OD600 = second read-out of rRNA inh HTS, no call of its own (marks repeat the call); OD600 change, %; measured here: OD600 growth;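 optical density of the mix in the first replicate; 0 = DMSO median and -100 = no signal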
# rRNA inh HTS RFP = second read-out of rRNA inh HTS, no call of its own (marks repeat the call); RFP signal change, %; measured here: RFP humanized mutant strains;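 first replicate; 0 = DMSO median and -100 = no signal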
# * hit, by the source's call; i = inactive; ? = inconclusive; / = not tested or not shown; & = joins results of further samples. An excerpt; rates above refer to the full screens.
SMILES,Ecoli growth,rRNA inh HTS,rRNA inh HTS OD600,rRNA inh HTS RFP,MLL AF4-AF9 inh,FGF22 binding,HNF4A DNA FP,Vif A3G,ALR inh
C[C@@H]1CCCCO[C@@H](CN(C)C(=O)Nc2cccc3ccccc23)[C@@H](C)CN([C@H](C)CO)C(=O)c2cc(NC(=O)C3CCCCC3)ccc2O1,/,-2,-2,-2.8,0.5,i,/,/,/
C[C@@H]1CN([C@@H](C)CO)S(=O)(=O)c2ccc(C#C[C@@H](C)O)cc2O[C@@H]1CN(C)C(=O)C1CCC1,/,1,-1,-0.2,-6.8,i,/,/,/
COc1ccc(-n2c(O)c(/C=N/Nc3nc(C)cc(C)n3)c3ccccc3c2=O)cc1OC,0.69,13,-2,-6.2,-2.9,i,-2.3,25%,47
COc1ccccc1C(=O)Nc1ccc2c(c1)C(=O)N(C)C[C@H](OC)[C@@H](C)CN[C@H](C)CO2,/,0,-4,0.5,-0.9,i,/,/,/
CC1CCN(C(=O)CSc2nnc3c(n2)[nH]c2ccc(F)cc23)CC1,0.63,3,13,-1.4,-2.8,i,-1.9,/,-9
CC(C)(C)S(=O)(=O)N1Cc2cc(CO)cc(CCO)c2[C@H]1CCO,0.69,-6,16,5.4,0.3,i,1.4,-7%,/
Cc1ccc(S(=O)(=O)N(C)CC(=O)N2CCCCCCC2)cc1,0.66,2,2,2.0,2.4,/,-3.2,-11%,2
CCCN1CCN(CCCNC(=O)CN2C(=O)COc3ccc(C(C)(C)C)cc32)CC1,/,13,4,2.1,-6.5,i,-1.0,-5%,/
CNc1nc2[nH]c(=O)c3c(c2s1)OC(N)=C(C#N)C3c1cccc(F)c1 (centres undefined),/,/,/,/,/,/,2.8,10%,18
O=C(NCc1ccc(C(F)(F)F)cc1)C1CC(c2ccccc2C(F)(F)F)=NO1 (centres undefined),0.72,-37,-68,-14,-1.0,i,2.7,2%,/
COC(=O)CCCC(=O)NC1CCCN(C2Cc3ccccc3C2)C1 (centres undefined),0.65,4,11,-0.8,-0.8,i,-1.4,/,/
Cc1cccc(C)c1NC(=O)N1CC=C(n2c(=O)[nH]c3ccccc32)CC1,0.7,/,/,/,/,/,-4.0,6%,20
COc1ccccc1NC(=O)Cn1cnc2c(cnn2-c2ccc(C)c(C)c2)c1=O,0.76,/,/,/,/,/,3.3,-7%,-4
COc1ccc(NC(=O)Nc2ccc3c(c2)CC(=O)N([C@@H](C)CO)C[C@H](C)[C@H](CN(C)Cc2ccc(-c4ccccc4)cc2)O3)cc1,/,0,-1,1.0,0.8,i,/,/,/
CSc1cccc(NC(=O)C2CCCN(c3ncnc4c3nc3n4CCCCC3)C2)c1 (centres undefined),0.71,-10,-27,-2.9,2.0,i,-1.7,6%,-6
Cc1[nH]c(=S)c(C#N)c(C)c1Cc1ccccc1,0.64,-12,4,6.6,-1.4,i,3.9,-7%,14
Cc1ccc(C(=O)CSc2nnc3c4ccccc4nc(C(C)(C)C)n23)cc1,0.69,-7,-4,-1.9,-0.5,i,1.8,-35%,-3
COc1ccc(-n2cnnc2)cc1,0.69,/,/,/,/,/,2.6,1%,-1
CCC(C)n1c(SCC(=O)NC(=O)Nc2ccc3c(c2)OCCO3)nc2ccccc2c1=O (centres undefined),0.68,/,/,/,/,/,1.2,-3%&-6%,-8
N#Cc1ccc(OCC(=O)Nc2ccc3[nH]c(=O)[nH]c3c2)cc1,0.61,2,7,0.0,-5.3,i,-0.8,0%,23
O=C1Nc2ccc(Cl)cc2C(C#CC2CC2)(C(F)(F)F)O1 (centres undefined),0.63,/,/,/,9.3,i,0.7,/,-3
Cc1ccc(NC(C(N)=O)c2c(C)[nH]c(=O)[nH]c2=O)cc1 (centres undefined),0.7,/,/,/,/,/,0.1,-6%,23
Cc1nc2ccccc2c(=O)n1/N=C/c1c(O)ccc2ccccc12,/,9,9,-0.1,6.7,i,6.9,-7%,-8
COc1cc2c(cc1OC)C(C)N(C(=O)c1ccc(C)o1)CC2 (centres undefined),0.65,4,-3,1.1,2.4,i,-0.9,/,/
COc1ccc(NC(=O)CCCC2CCCCC2)c(OC)c1,0.7,-9,-3,-2.5,-1.3,i,3.7,2%,-15
O=C(C[C@H]1CC[C@H]2[C@@H](COC[C@@H](O)CN2Cc2cccc(-c3ccncc3)c2)O1)N1CCN(c2ccccc2)CC1,/,-2,-4,-0.3,5.6,i,/,/,/
CN(CCOc1ccccc1Cl)Cc1ccccc1,0.68,-7,-8,-3.1,5.5,i,1.8,/,0
CCOC(=O)N1CCN(c2ccc(C(C)=O)cc2F)CC1C (centres undefined),0.72,/,/,/,/,/,1.3,-10%,-3
C[C@@H]1CN([C@H](C)CO)C(=O)CCCn2cc(nn2)CO[C@H]1CN(C)C(=O)c1cc(-c2ccccc2)on1,/,1&-4,5&-3,0.6&-1.1,-1.0&-0.8,i,3.0,-3%,/
Cc1ccc(C(=O)COC(=O)c2cnccn2)cc1[N+](=O)[O-],/,/,/,/,-2.0,i,-1.6,-8%,14
O=C(Nc1cccc(S(=O)(=O)N2CCOCC2)c1)c1c2c(nc3ccccc13)CCC2,0.71,/,/,/,/,/,-4.2,?,-12
COc1cc(C(F)(F)F)c(C(=O)N(C)c2ccc(Cl)cc2)cn1,0.68,-3,-7,-1.9,1.2,i,0.3,-4%,-7
COc1cc(OC)cc(C(=O)N2CCCC(c3nc(-c4ccc(C)o4)no3)C2)c1 (centres undefined),0.67,-4,-4,12,-8.2,i,3.6,32%,-7
O=C(CC1Nc2cccc3cccc(c23)NC1=O)Nc1ccc(F)cc1 (centres undefined),0.67,14,10,5.9,4.4,i,0.2,20%,62
C[C@@H]1CN([C@@H](C)CO)C(=O)CCCn2nncc2CO[C@@H]1CN(C)C(=O)c1ccc(N2CCN(C)CC2)cc1,/,11&0,26&3,-1.6&-1.9,0.4&-2.6&-0.4,i,-0.8,2%,/
CCOc1ccccc1-n1c(SCC(=O)N(C(C)C)C(C)C)nnc1-c1cccnc1,0.7,-18,-22,-4.3,/,/,-0.8,3%,4
COc1ccc(OC(=O)Nc2ccc([N+](=O)[O-])cc2OC)cc1,0.7,4,5,0.9,-1.4,i,-2.6,?,1
COc1cccc(NC(=O)CSc2nccn(-c3ccc4c(c3)OCCO4)c2=O)c1,0.65,-19,-16,1.7,-2.5,i,-0.9,-1%,99*
COc1ccc(CC(=O)Nc2ccc(-c3noc(-c4cc(OC)c(OC)c(OC)c4)n3)cc2)cc1,0.7,/,/,/,/,/,2.2,-1%,0
CCCCCCCCN1C(=O)[C@H](CC(=O)NCCCC)C[C@@]2(C(=O)OCC)CCCC=C12,/,/,/,/,-0.4,i,1.8,/,/
C=CCNC(=O)CCNS(=O)(=O)c1ccc(Br)cc1,0.72,/,/,/,/,/,-4.9,2%,-4
O=C(COc1ccc([N+](=O)[O-])cc1)Nc1ccc(N2CCCC2)cc1,/,3,12,-3.5,4.8,i,0.0,17%,-25
CN(CC(=O)Nc1ccncc1)S(=O)(=O)c1ccc(Cl)cc1,0.7,/,/,/,/,/,1.6,8%,-9
CCCCC1(C(=O)OC)NC(c2ccc(O)cc2)C2C(=O)N(c3ccccc3)C(=O)C21 (centres undefined),0.65,6,0,-2.1,-4.1,i,1.9,/,-7
C[C@@H]1CN([C@@H](C)CO)C(=O)c2cc(NC(=O)Cn3cnnn3)ccc2O[C@H]1CN(C)Cc1ccccc1,/,3,8,-2.4,-3.1,i,/,/,/
CN1CCN(C(=O)c2ccc(Cl)c(S(=O)(=O)N3CCCCC3)c2)CC1,0.73,/,/,/,/,/,2.3,3%,-10
COc1ccc(NC(=O)CSc2nnc(-c3cnccn3)n2C)cc1OC,0.61,9,10,-0.9,-1.0,i,-3.2,/,-41
CC(C)NC(=O)c1onc(CSc2cccc(Cl)c2)c1C(=O)O,0.69,-6,-12,11,-0.5,i,-1.8,-4%,39
COc1ccc(CNC(=O)COC(=O)c2ccco2)cc1,0.65,18,23,1.5,-1.7,i,-1.2,-4%,/
CCOC(=O)[C@]12CCCC=C1N(Cc1ccc(Cl)cc1Cl)C(=O)[C@H](CC(=O)N1CCN(C(=O)C3CC3)CC1)C2,/,/,/,/,-2.2,i,2.9,/,/
CCOc1c2c(nc3ccc(Cl)cc13)CCC2,0.71,/,/,/,/,/,1.2,-5%,-1
Cc1ccc(OCC(=O)N2CCc3ccccc3C2)c(Br)c1,0.68,-39,-66,-0.8,-2.0,i,0.1,-3%,/
COC(=O)c1sc2nc(C)cc(C)c2c1N,0.65,-26,-23,-7.9,-4.1,i,-3.4,-7%,-19
CCc1cc2c(cc3c(=O)n(CC(=O)N4CCN(c5ccccn5)CC4)nc(CC)n32)s1,0.69,6,6,-1.6,5.3,i,0.9,-34%,-1
CC(=O)c1ccc(OCC(=O)OC(C)C(=O)NC2CCCCC2)cc1 (centres undefined),0.65,8,7,0.3,0.7,i,-1.8,/,-1
COc1ccc(C(=O)CSc2nc(C)cc(C)n2)cc1C,0.67,-13,-31,4.1,-1.3,i,-1.4,/,-1
c1ccc(-n2c(-c3cccs3)nc3nc4ccccc4nc32)cc1,0.66,15,23,-0.6,-2.1,i,3.5,/,-2
CCOC(=O)N1CCN(C(=O)c2oc(=O)c3ccccc3c2-c2ccc(C)cc2)CC1,0.74,1,-1,-0.4,-0.8,i,3.0,1%,-12
CCOC(=O)C1=CN(Cc2cccc(Br)c2)S(=O)(=O)N(C)C1C (centres undefined),0.7,-20,-37,-6.3,0.7,i,2.1,-6%,/
O=C(NCc1ccc2c(c1)OCO2)c1cc(-c2ccc(Cl)cc2Cl)on1,0.71,/,/,/,/,/,2.4,14%,0

# An excerpt from above in order of number of heavy atoms, highest first.
SMILES,Ecoli growth,rRNA inh HTS,rRNA inh HTS OD600,rRNA inh HTS RFP,MLL AF4-AF9 inh,FGF22 binding,HNF4A DNA FP,Vif A3G,ALR inh
CCc1cc2c(cc3c(=O)n(CC(=O)N4CCN(c5ccccn5)CC4)nc(CC)n32)s1,0.69,6,6,-1.6,5.3,i,0.9,-34%,-1
O=C(NCc1ccc2c(c1)OCO2)c1cc(-c2ccc(Cl)cc2Cl)on1,0.71,/,/,/,/,/,2.4,14%,0
COC(=O)c1sc2nc(C)cc(C)c2c1N,0.65,-26,-23,-7.9,-4.1,i,-3.4,-7%,-19

# (more compounds)
SMILES,Ecoli growth,rRNA inh HTS,rRNA inh HTS OD600,rRNA inh HTS RFP,MLL AF4-AF9 inh,FGF22 binding,HNF4A DNA FP,Vif A3G,ALR inh
Cc1cc(C(=O)NCc2ccccc2)c(=O)[nH]c1C,0.69,/,/,/,/,/,-2.1,-12%,-1
CC(C)c1cn(CC[C@@H]2CC[C@@H](NS(=O)(=O)c3ccc(Cl)cc3)[C@@H](CO)O2)nn1,/,-3,-6,-2.1,0.2,i,/,/,/
Cc1ccc(-n2c(SCC(=O)NCCN3C(=O)CSC3=O)nnc2-c2ccccc2)cc1,0.7,-5,0,6.3,-1.6,i,2.5,-7%,6
O=C(Nc1nc2ccccc2n1CCN1CCCC1)C1CCCCC1,0.69,/,/,/,/,/,0.4,2%,-2
COc1ccc(C(CC(=O)Nc2ccc(F)cc2)c2ccccc2)cc1 (centres undefined),0.68,/,/,/,/,/,-1.6,1%,-5
COc1ccc([C@H]2CC(=O)C=C(c3ccc(CO)cc3)C2)cc1,0.76,-15,-14,-6.4,1.4,i,1.7,/,-1
Cc1ccc2sc(C)[n+](CCO)c2c1,0.71,17,10,2.0,-2.5,i,-2.8,/,10
